Compound activity deposited in PubChem by ICCB-Longwood Screening Facility, Harvard Medical School.
CapD inh = inhibitors of Bacillus anthracis CapD enzyme | purified CapD enzyme, fluorescence intensity read-out; active compounds read low; some hits fall short of the stated cut | z-score (concentration not given with the values) | 140,000 tested, 0.23% active;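 active = z-score under -4 in either of two replicates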;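 note: stock transfer was 100 nL into about 40 µL; score is relative to mean and spread of the plate; one replicate is shown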
AID504770 = E. coli YBA685 growth inhibition, screen for V. cholerae RctB inhibitors; z-score (no concentration beside the values); AID 504770; 130,000 tested, 0.27% active; E. coli YBA685 rctB-dependent plasmid, OD600 growth, 3 h; active compounds read low;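 active = z-score under -2 on both plates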;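 note: wells of about 30 µL received 100 nL stock; score is relative to mean and SD of the test wells; the first replicate is given; strong numbers were not always called active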
Numbers without * were called inactive; / = not tested or not shown; & = joins results of further samples.

The opening 14 entries, ahead of the listing:
SMILES | CapD inh | AID504770
O=c1c(-c2nc(-c3ccc(Cl)cc3)no2)cnc2n1CCS2 | 2.44 | 2
N#Cc1ccccc1NCc1ccccc1 | 55.3 | 0.7
CC1=C(C#N)C(c2ccc(C#Cc3ccccc3)s2)C2=C(CCCC2=O)N1 (stereo not given) | 63.6 | -0.1
Cc1ccc2nc(-c3ccc(S(=O)(=O)N4CCCCCC4)cc3)cn2c1 | 6.58 | /
O=C1C2C(C(=O)N1c1ccc(Br)cc1)N1CCCN1C2c1ccccc1 (stereo not given) | -0.125 | /
CCCN1CCN(C(=O)c2cccc3c2C(=O)N(CCOC)C3)CC1 | -0.625 | -0.5
COC(=O)C1=C(Nc2ccccc2NC(=O)c2cccs2)CSC1 | 0.07 | -0.55
O=C1S/C(=C\c2ccccc2)C(=O)N1CCN1C(=O)S/C(=C\c2ccco2)C1=O | / | 0.45
Cc1cc(C)nc(NS(=O)(=O)c2ccc(NC(=O)C3(c4ccccc4)CCOCC3)cc2)n1 | 2.69 | 1
CC(=O)Nc1nn2c(-c3ccco3)nnc2s1 | -0.125 | -0.7
O=C(CSc1cccc[n+]1[O-])N1CCc2ccccc21 | 0.545 | 0.6
CCOC(=O)COc1ccc(C)c2c1CCC2 | 0.34 | /
CCCCCCCC1CCC(=O)O1 (stereo not given) | / | 0.6
OCn1nc(-c2ccccc2Br)oc1=S | -0.465 | -1.4

The whole of this part, repeating the preview:
SMILES | CapD inh | AID504770
O=c1c(-c2nc(-c3ccc(Cl)cc3)no2)cnc2n1CCS2 | 2.44 | 2
N#Cc1ccccc1NCc1ccccc1 | 55.3 | 0.7
CC1=C(C#N)C(c2ccc(C#Cc3ccccc3)s2)C2=C(CCCC2=O)N1 (stereo not given) | 63.6 | -0.1
Cc1ccc2nc(-c3ccc(S(=O)(=O)N4CCCCCC4)cc3)cn2c1 | 6.58 | /
O=C1C2C(C(=O)N1c1ccc(Br)cc1)N1CCCN1C2c1ccccc1 (stereo not given) | -0.125 | /
CCCN1CCN(C(=O)c2cccc3c2C(=O)N(CCOC)C3)CC1 | -0.625 | -0.5
COC(=O)C1=C(Nc2ccccc2NC(=O)c2cccs2)CSC1 | 0.07 | -0.55
O=C1S/C(=C\c2ccccc2)C(=O)N1CCN1C(=O)S/C(=C\c2ccco2)C1=O | / | 0.45
Cc1cc(C)nc(NS(=O)(=O)c2ccc(NC(=O)C3(c4ccccc4)CCOCC3)cc2)n1 | 2.69 | 1
CC(=O)Nc1nn2c(-c3ccco3)nnc2s1 | -0.125 | -0.7
O=C(CSc1cccc[n+]1[O-])N1CCc2ccccc21 | 0.545 | 0.6
CCOC(=O)COc1ccc(C)c2c1CCC2 | 0.34 | /
CCCCCCCC1CCC(=O)O1 (stereo not given) | / | 0.6
OCn1nc(-c2ccccc2Br)oc1=S | -0.465 | -1.4
Clc1ccc(CN2CCCN(c3ncnc4scc(-c5ccccc5)c34)CC2)cc1Cl | -0.605 | /
COc1ccc(C(=O)Nc2cc3c4c(c2)CCC(=O)N4CCC3)cc1OC | / | 0.05
COC(=O)Cc1cc(=O)oc2cc(O)ccc12 | 79.3&76.7 | 1.25&-1.3
N#CCCSc1nnc(Cc2cccc3ccccc23)n1C1CCCCC1 | / | 0.25
Cc1ccc(NC(=O)c2sc3nc(SCC(=O)NCc4ccco4)n(N)c(=O)c3c2C)c(C)c1 | 2.38 | -0.8
O=C(O)c1ccc(S(=O)(=O)C(F)F)cc1 | / | -0.55
C/C(=N\Nc1ccccc1)c1ccc(-c2ccccc2)cc1 | 0.215 | /
CC1CCN(S(=O)(=O)c2cc(Cl)c(Cl)cc2Cl)CC1 | 0.43 | /
CCc1nc2ccccc2c2nc(NC(=O)C(F)(F)F)nn12 | -1.1 | -0.65
CCOC(=O)COc1nc(-c2ccccc2)sc1C(=O)OCC | 11.6 | 0.95
Cc1cc(C)nc(SCC(=O)N2CCOCC2)n1 | 0.2 | -0.95
COc1ccc(O)c(-c2cn[nH]c2-c2cccs2)c1 | / | -0.45
Cc1ccccc1CN1C(=O)C(O)(CC(=O)c2ccc3c(c2)CCCC3)c2ccccc21 (stereo not given) | 10.5 | -0.75
O=C(COC(=O)Cn1cnc2ccccc2c1=O)NC1CCCC1 | / | -0.15
COc1cc(OC)nc(CSc2ccc(NC(=O)CSc3nc(C)cc(C)n3)cc2)n1 | -0.72 | /
COc1ccc(-n2cc(C#N)c(=O)[nH]c2=O)cc1 | 0.62 | -1.4
CC(C)c1ccc(N(C)S(=O)(=O)c2ccc3[nH]cc(C(=O)NCCCN4CCOCC4)c(=O)c3c2)cc1 | 0.56 | /
O=C(O/N=C1\CCCc2c1sc1nc3n(c(=O)c21)CCCCC3)c1ccccc1 | 6.08 | /
Cc1nn(-c2ccccc2)c(C)c1-c1nnc(-c2ccc(Cl)cc2)o1 | 0.05 | -0.65
CN1C2=C(C#N)C(=O)C(c3ccccc3)N2c2ccccc21 (stereo not given) | / | -0.05
CC1C(O)=C(c2nc3ccccc3[nH]2)C(=N)N1c1ccccc1 (stereo not given) | 2.81 | -0.6
O=C1C(C=NCCCN2CCOCC2)=C(O)c2ccccc21 | -1.98 | -0.2
CCN(CC)CCOc1cc2c(cc1Cl)-c1cc(Cl)c(OCCN(CC)CC)cc1C2=O | -0.525 | /
CCOC(CNC(=O)c1ccc2cc[nH]c2c1)(OCC)c1ccncc1 | 16.6 | /
Oc1oc(-c2ccc(Br)cc2)nc1C=Nc1ccccc1 | -0.25 | 0.05
COc1ccc(F)c(CN2CCCC(COC(=O)N3CCN(c4sc(S(N)(=O)=O)cc4[N+](=O)[O-])CC3)C2)c1 (stereo not given) | -1.88 | /
COc1ccc(OC)c(S(=O)(=O)NCc2cccnc2)c1 | 0.51 | 0.4
Cc1ccc(N=Cc2nc(-c3ccccc3Br)oc2O)c([N+](=O)[O-])c1 | -0.215 | /
COc1ccc(CCNC(=O)Cn2nc(-c3ccccc3)ccc2=O)cc1OC | 0.155 | 0.05
Cc1ccc(Nc2nc(N)nc(COC(=O)CN3CCCC3=O)n2)cc1 | / | -0.75
Cc1cc(C(=O)C(F)(F)F)c(C)n1-c1ccc(C(F)(F)F)cc1 | 0.605 | /
O=C(CSC1=NCCS1)Nc1ccc(Br)cc1C(=O)c1ccccc1Cl | -0.53 | -0.05
COC(OC)c1ccc2c(N)c(C(=O)Nc3ccccc3)sc2n1 | -0.15 | -0.5
O=C(Nc1ccc2c3c(cccc13)S(=O)(=O)N2)c1ccccc1 | -1.31 | -0.65
CCn1c(CCc2ccccc2)nnc1SCC(=O)Nc1cccc(OC)c1 | 0.085 | -0.6
CC1CCN(C(=O)COC(=O)c2ccc(Cl)nc2)CC1 | 0.025 | -0.25
The list goes on:
SMILES | CapD inh | AID504770
Cc1cc(Cl)ccc1OC(C)C(=O)OCC(=O)Nc1ccc2[nH]c(=O)[nH]c2c1 (stereo not given) | / | 0
CC(=O)N1CC(=O)N(OCc2ccccc2)C1c1ccc(Cl)cc1Cl (stereo not given) | 0.085 | /
COc1ccc(S(=O)(=O)Cc2ccc(C(=O)NC3CCCc4ccccc43)o2)cc1 (stereo not given) | -0.145 | 0.25
CC(C)C1C(c2ccccc2)N(C)C(c2ccccc2)CC1(O)c1ccccc1 (stereo not given) | -0.265 | -0.15
COc1ccc(Cl)cc1NC(=O)COc1ccccc1 | 0.095 | -0.1
Clc1ccc(-c2nnn3c2nc(NCc2ccco2)c2ccccc23)cc1 | 1.81 | 0.7
CCOC(=O)CSc1nc2ccccc2c(=O)n1CC1CCC(C(=O)NCC2CCCO2)CC1 (stereo not given) | -0.69 | /
O=C1/C(=C/c2ccc([N+](=O)[O-])cc2)C=C(c2ccccc2)N1c1ccc(I)cc1 | -0.325 | /
C[n+]1ccccc1-c1nc2ccccc2s1 | 24.6 | 0.5
Cc1csc(Nc2ccc(Cl)cc2)[n+]1C | -1.15 | /
COc1ccccc1NC(=O)NCc1nc2nc(C)cc(C)n2n1 | 0.02 | 0.2
CCC(=O)OC1CCC2C3CCc4cc(O)ccc4C3CCC12C (stereo not given) | 0.88 | /
N#CC(C(=O)C1CCCCC1)c1nc2ccccc2s1 (stereo not given) | -0.36 | 0.2
O=S1(=O)CCN(Cc2ccc3c(c2)OCCCO3)CC1 | -0.445 | -0.6
CCn1c(=O)c(C(=O)Nc2ccc(Cl)cn2)c(O)c2ccccc21 | / | 0.5
N#CC1=C(N)OC2=C(C(=O)CC(c3ccccc3)C2)C12C(=O)Nc1ccc(Br)cc12 (stereo not given) | -0.03 | /
CCOC(=O)C1=C(C)Nc2ccccc2N=C1NC(=O)C1CC2C=CC1C2 (stereo not given) | / | -0.3
CC1Cc2cc(S(=O)(=O)NN3CCOCC3)ccc2N1C(=O)C1CC1 (stereo not given) | 4.64 | -0.25
O=C1c2ccccc2C(=O)N1c1nccc(Br)c1Br | 0.585 | 0.65
O=C1CCc2cc(C(=O)CSc3nnnn3C3CCCC3)ccc2N1 | / | 0.65
Cc1ccc(C)n1-c1ccc(CC(=O)O)cc1 | -3.24 | -1.7
CCC/C=C/COC(=O)N1CCN(c2ccccc2C)CC1 | 0.355 | /
Cc1ccc(C#N)c(SCC(=O)O)n1 | / | -0.7
O=C(O)CCc1ccccc1O | / | -0.7
O=S(=O)(c1ccc(F)cc1F)n1nccc1-c1ccc(-c2ccc(F)cc2F)o1 | 0.51 | 1.6
C=CCn1c(=S)[nH]c2ccccc21 | / | -0.75
O=C(CSc1ccc2c(c1)OCCO2)NCC1COc2ccccc2O1 (stereo not given) | / | 0.2
N#CC1=C(N)Oc2n[nH]c(C(F)(F)F)c2C1c1cccnc1 (stereo not given) | -1.44 | 1.95
COc1cccc(-n2c(SCC(=O)Nc3ccccc3)nc3c(oc4ccccc43)c2=O)c1 | -1.06 | 3.2
CCOC(=O)C1=C(N)N(c2ccc(OC)cc2)C2=C(C(=O)CC(C)(C)C2)C1c1cc(OC)c(OC)c(OC)c1 (stereo not given) | 1.09 | /

As a short view, part of the list above.
SMILES | CapD inh | AID504770
Cc1ccc(C#N)c(SCC(=O)O)n1 | / | -0.7
O=C(O)CCc1ccccc1O | / | -0.7

More compounds follow:
SMILES | CapD inh | AID504770
O=C(NCCNc1ccc2ccccc2c1)c1cccn2c(=O)c3sccc3nc12 | 0.395 | 0.8
Cc1ccnc(NCn2cnc3ccccc32)c1 | 0.765 | 0
O=S1(=O)CCC(S(=O)(=O)C2CCS(=O)(=O)C2)C1 (stereo not given) | 0.35 | -0.15
O=C1CSC2(C(=O)N(CN3CCCCC3)c3ccccc32)N1c1cccc(C(F)(F)F)c1 (stereo not given) | -0.345 | /
COC(=O)c1cc(OC)c(OC)cc1NC(=O)CC1CCCCC1 | 110 | -0.4
O=C(O)c1ccccc1NCn1nnc2ccccc21 | 45.1 | -0.55
O=C(Cc1ccc(F)c(F)c1)N1CCN(C(=O)OCC2CCCN(Cc3ccc4ccccc4c3)C2)CC1 (stereo not given) | -0.82 | /
CCCc1cc2c(=O)c(-c3csc(C)n3)coc2cc1O | / | 1.05
CCOC(=O)c1cc2cnccc2nc1-c1ccc(C(F)(F)F)cc1 | 0.145 | /
CCOC(=O)c1csc(-c2sccc2COc2ccccc2)n1 | 1.39 | -0.8
Cc1ccc(Cn2cc(CCC(=O)O)c3ccccc32)cc1 | 5.63 | 1.05
O=C(O)CC(c1ccccc1)c1cc(Br)ccc1O (stereo not given) | 0.15 | -0.45
Cc1cccc(C(=O)N(CCN2C(=O)c3ccccc3C2=O)c2cccc3ccccc23)c1 | 0.685 | 0
CCc1cccc(C)c1N=C(C#N)C1=C(O)c2ccccc2C1=O | -1.29 | -0.5
CCCCCSc1nnc2n(Cc3ccc(OC)cc3)c(=O)c3c(n12)-c1ccccc1CC31CCCCC1 | -0.495 | /
O=C1NS(=O)(=O)c2ccccc2S(=O)(=O)c2ccccc21 | -0.015 | -0.75
N/N=C/C1=C(N2CCOCC2)C(=C\c2ccccc2)/CC1 | / | 0.05
CCCN1C(=O)/C(=N\OCC(=O)N2CCCc3ccccc32)c2ccccc21 | / | -0.5
CCCCN(c1ncnc2onc(-c3ccc(F)cc3)c12)C1CCN(C(C)=O)CC1 | 2.83 | -0.65
COCCOC(=O)c1c(C)oc2cc(Br)c(OCC(=O)c3ccc(OC)cc3)cc12 | 0.245 | 1.55
COc1ccccc1N1CCN(CC(=O)N2CCCC2)CC1 | / | 0.7
Nc1nn2cc(-c3ccccc3)nc2s1 | 0.08 | -0.8
O=S1(=O)CCN(Cc2ccccc2)CC1 | -1.28 | /
COc1ccc2oc(=Nc3ccc(C(=O)O)cc3)c(C(=O)NCc3ccco3)cc2c1 | -0.78 | /
CC1CCN(Cn2nc(-c3ccc(F)cc3)oc2=O)CC1 | / | -0.05
Cc1ccc(OCC(=O)NCCO)c(C)c1 | -0.33 | -1.05
Cc1ccc(CN2CCN(CCOC(=O)N3CCN(c4ccc(C(F)(F)F)cc4)CC3)CC2)s1 | -0.905 | /
Cc1ccc(N2C(=O)CS(=O)(=O)C2c2ccc([N+](=O)[O-])cc2)c(Br)c1 (stereo not given) | -0.36 | /
O=C(Cn1c(=O)sc2ccccc21)Nc1nc2c(s1)CCCC2 | / | -0.7
COc1ccc(NC(C)=O)cc1Cl | 0.4 | /
Clc1ccc(CSc2ncnc3sc4c(c23)CCCC4)c(Cl)c1 | -0.11 | /
O=[N+]([O-])c1cc(C(F)(F)F)ccc1N1CCSCC1 | -0.99 | /
C=CCN1C(=O)C(C)(C)N(C(C)=O)c2ccccc21 | / | 1.75
N#CC1(C(=O)O)CC2c3ccccc3C1c1ccccc12 (stereo not given) | -0.965 | -0.2
CCC(C)c1ccc(NC(=O)COC(=O)c2ccco2)cc1 (stereo not given) | -0.495 | -0.5
O=C(CN1CCCC1)Nc1ccc(F)cc1 | / | 0.3
CCC(=O)Nc1sc2c(c1C(=O)Nc1ccccc1CC)CCC2 | -0.405 | /
CSCCn1c(-c2ccccc2)cc(C(=O)N2CCCCC2)c1C | 0.04 | 1.1
Cc1ccc(NC(=O)CC(C)N2CCCC2)cc1 (stereo not given) | -0.165 | 0.1
CN1C(=O)C2C=CC=CC2N=C1SCC(N)=O (stereo not given) | 0.08 | -1.15
